Assay outcomes: PubChem, Fisher Drug Discovery Resource Center
NPYLR7 ag – activates Aedes aegypti NPYLR7 receptor; HEK293T NPYLR7/Galpha15, GCaMP6s calcium fluorescence; AID 1259423; activation, % at 10 µM; actives 0.15% (n = 270,000); in the data active = activation above about 40%;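 also: 0% = vehicle and 100% = reference agonist at the receptor; some compounds past the cut are filed as inactive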
NPYLR7 ag max-min – recorded beside NPYLR7 ag, whose call it bears; activation, %; measured here: Max-Min RFU normalised activation; some inactives read as strong as hits;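 span of the calcium signal over five minutes; 0% = vehicle and 100% = native peptide agonist; compound fluorescence can raise it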
* marks the source's active call; other numbers are inactive results; & = joins results of further samples. Not all compounds are listed; count on the stated rates, not on these rows.

Below each compound – NPYLR7 ag, NPYLR7 ag max-min
O=C(/C=C/c1cccnc1)NCCCCC1CCN(C(=O)c2ccccc2)CC1
    6, 0
CCOC(=O)C1=C(C)N=c2s/c(=C\c3cccs3)c(=O)n2C1c1cc(OC)ccc1OC (stereo unspecified)
    4, 3
Cc1cc(NC(=O)COC(=O)c2c(C)noc2N)ccc1N1CCCC1
    -1, 3
NC(=O)c1ccc(CN(C(=O)c2ccc(Br)s2)C2CC2)cc1
    10, 7
CC(C)COc1nc(-c2ccc(C(F)(F)F)cc2)n(-c2ccc(NC(=O)Nc3ccc(F)cc3F)cc2)n1
    21, 17
COCCN(Cc1ccc(OS(C)(=O)=O)cc1)C(=O)Nc1cccc(Br)c1
    -2, 11
Cc1c(C(C)NC(=O)CCc2cccs2)cnn1-c1ccccn1 (stereo unspecified)
    8, 1
COc1cc(C2=CC(=O)OC2CC(=O)O)c(OC)c(O)c1-c1ccc(O)cc1 (stereo unspecified)
    -5, -14
Cc1cc2c(C)nc(N3CCC(N4CCOc5ccccc5C4)CC3)nc2cc1F
    30, 11
CCOCc1cn(CC(=O)c2ccccc2)c(C)nc1=N
    5, 10
COc1ccc(OC)c(COCC(O)CNC(C)C)c1 (stereo unspecified)
    -1, 11
CCn1c(=O)c2c(nc3n(-c4ccc(S(N)(=O)=O)cc4)c(C)cn23)n(C)c1=O
    14, 11
COc1ccc2nc(-c3ccc(C)c(NC(=O)Nc4ccc(OC)c(OC)c4)c3)cn2n1
    15, 10
O=C(N[C@H](CO)CC1CCCCC1)c1cc(CN2CCC(O)CC2)on1
    4, 2
Cc1ccc(-n2cccc2/C=N\n2cnnc2)cc1Cl
    -5, -12
COc1cc(C)c(NC(=O)Cn2cnc3scc(-c4cccs4)c3c2=O)cc1OC
    6, 6
CC(=O)N(CC(O)CN(C(C)=O)c1c(I)c(C(=O)NCC(O)CO)c(I)c(C(=O)NCC(O)CO)c1I)c1c(I)c(C(=O)NCC(O)CO)c(I)c(C(=O)NCC(O)CO)c1I (stereo unspecified)
    2, -1
COCCNC(=O)c1cc(N)ccc1N1CCCC1
    6, 6
CCOc1ncccc1C(=O)N1CCOC(COCc2c(Cl)cccc2Cl)C1 (stereo unspecified)
    21, 10
CC1CC2=Nc3ccccc3NC(C)C2C(=O)O1 (stereo unspecified)
    7, 8
Cc1nc2ccc(C(=O)N3CCc4nnc(CCc5ccccc5)n4CC3)cc2[nH]1
    3, -3
C=CCNCc1nccn1Cc1cccc(Cl)c1
    13, 13
Cc1nc(N2CCN(c3cc(=O)[nH]nc3-c3ccccc3)CC2)c2cnn(C)c2n1
    -1, -1
O=C1OC(c2ccc(N3CCCC3=O)cc2)=NC1=Cc1cc(Br)ccc1F
    16, 14
CCc1nccn1CCC(=O)N1CC[C@@H](c2ccc(F)cc2)[C@H](O)C1
    2, 2
CCC1=NN(C(=O)C(C)Oc2ccc(Cl)cc2Cl)C(O)(C(F)(F)F)C1 (stereo unspecified)
    -1, -3
CCc1cc(CNC(=O)CC2C(=O)NCCN2Cc2ccccc2C(F)(F)F)on1 (stereo unspecified)
    12, 4
Cc1ccc(N2CC(c3nc4ccccc4n3C)CC2=O)c(C)c1 (stereo unspecified)
    -2, -6
CCOc1ccc(Nc2ccnc(C(C)(C)C)n2)cc1
    3, -2
COc1ccc(OCCNC(=O)c2cc(C)nc3ccccc23)cc1
    9, 5

Entries of single compounds as entered above.
CC1CC2=Nc3ccccc3NC(C)C2C(=O)O1 (stereo unspecified) is listed as NPYLR7 ag = 7; NPYLR7 ag max-min = 8
COc1ccc2nc(-c3ccc(C)c(NC(=O)Nc4ccc(OC)c(OC)c4)c3)cn2n1 is listed as NPYLR7 ag = 15; NPYLR7 ag max-min = 10
C=CCNCc1nccn1Cc1cccc(Cl)c1 is listed as NPYLR7 ag = 13; NPYLR7 ag max-min = 13

Returning to the listing; the 2 compounds before the break are reprinted first.
Below each compound – NPYLR7 ag, NPYLR7 ag max-min
CCOc1ccc(Nc2ccnc(C(C)(C)C)n2)cc1
    3, -2
COc1ccc(OCCNC(=O)c2cc(C)nc3ccccc23)cc1
    9, 5
CCOC(=O)c1cccc(NC(=O)CCN2C(=O)c3ccccc3C2=O)c1
    5, -4
NCC1Cc2cc(-c3ccc(C(=O)N4CCCC4)o3)cc(Cl)c2O1 (stereo unspecified)
    12, 11
Cc1cc2nc(-c3cccs3)cc(C(=O)NCc3ccc(F)c(Cl)c3)c2cc1C
    -6, -9
CCOc1cccc2cc(C(=O)N3CC(C)CC(C)C3)c(=O)oc12 (stereo unspecified)
    3, 6
Cc1ccc(S(=O)(=O)N/N=C(\c2ccccc2)c2c(C)[nH]n(-c3ccccc3)c2=O)cc1
    2, -1
COc1ccc(C2Nn3c(Cc4ccccc4)nnc3S2)cc1OC (stereo unspecified)
    -5, -8
COc1ccc(CNC(=O)c2cccnc2N2CCN(C(=O)c3c(C)noc3C)CC2)cc1
    2, -5
COc1ccccc1-c1c(Nc2ccccc2C)oc2c1c(=O)n(C)c(=O)n2C
    -6, -6
COc1ccccc1N1CCN(Cc2cnc(SC)nc2)CC1(C)C
    3, -5
Cc1ccc(C(=O)N(Cc2nccn2Cc2cccc(C(F)(F)F)c2)CC(C)C)cc1
    -1, 7
Cc1nsc(N2CCCN(C(=O)c3sccc3C3CC3)CC2)n1
    3, 3
CCOc1ccc(Br)cc1NC(=O)C1CC(=O)N(C)C1 (stereo unspecified)
    -3, -4
O=C(O)C12C3C4C1C1C2C3C1(Br)C4(O)O (stereo unspecified)
    0, -3
Cc1nc(C)c(-c2csc(Nc3cccnc3)n2)s1
    5, 2
C=C(C)Cn1c(C(=O)N2CCN(C(=O)CCc3ccccc3)C(C)C2)cc2ccoc21 (stereo unspecified)
    24, 24
Cc1cc(C(=O)NCCSc2nnc(C)s2)c2ccc(F)cc2n1
    0, 4
CC1c2cc(F)ccc2CCN1C(=O)C1CC(=O)N(CCN(C)C)C1 (stereo unspecified)
    2, 2
COc1ccc(-c2cc(CN3CCN(S(=O)(=O)c4ccc(C)cc4)CC3)on2)cc1
    -3, -3
COc1ccc(-c2nc(CN3CCC(F)(F)CC3)c(C)o2)c2ccccc12
    0, -8
Cn1c(C(=O)NCC2(N)CCCC2)cc2ccccc21
    9, 5
c1ccc(C2CCN(CCNc3ncnc4[nH]ccc34)C2)cc1 (stereo unspecified)
    2, -1
CCc1ccc2oc(-c3ccc(C)c(NC(=O)c4ccc(F)cc4)c3)nc2c1
    -7, -6
CN1CCN(c2nc(-c3cccs3)cs2)CC1
    -4, -8
CCOC(=O)c1cn[nH]c1S(=O)(=O)NCc1cccc(OC)c1
    -5, -8
CC(Cn1cccn1)C(=O)N1Cc2cnn(Cc3ccc(F)cc3)c2C1 (stereo unspecified)
    3, 10
CCOC(=O)c1nn(-c2ccccc2Cl)c(=O)cc1OS(=O)(=O)c1ccc(C)cc1
    -2, 4
Cn1c(=O)c2c(nc(Br)n2CCSc2ncccn2)n(C)c1=O
    0, -6
COc1cccc(COC(=O)c2nnn(-c3ccc(C)cc3)c2C)c1
    -22, -25
c1ccc(-n2c(SCCc3ccncc3)nnc2-c2ccncc2)cc1
    0, 1
Cc1ccoc1C(=O)NCc1ccccc1-n1cncn1
    -1, -2

Next part:
molecule | NPYLR7 ag | NPYLR7 ag max-min
CCCc1noc(C(C)N(C)CC2CCCCC2)n1 (stereo unspecified) | 4 | 0
CN(Cc1nnc(-c2ccccc2)o1)C(=O)c1sccc1Cl | -1 | -3
CC(c1nc(N)nc(Nc2ccccc2)n1)N1CCCCCC1 (stereo unspecified) | 3 | -1
Cc1cccc(NC(=O)N2CCN(c3nc(-c4cccc(F)c4)nc(C)c3Cc3ccccc3)CC2)c1 | -2 | 4
O=C(NCc1cccc(Cl)c1)c1ccc(N2CCOCC2)nc1 | 0 | -1
O=C(NCCc1ccccc1)c1ccccc1NS(=O)(=O)c1c(F)c(F)c(F)c(F)c1F | -1 | 8
COc1ccc(C(=O)OCCN(C2=NS(=O)(=O)c3ccccc32)c2ccccc2Cl)cc1OC | 5 | 9
COC(=O)CC(=O)N[C@H](Cc1ccccc1)C(=O)N1CCC(C(=O)NCc2cccc(OC)c2)CC1 | 15 | 14
O=c1ncccn1[C@@H]1O[C@H](CO)[C@@H](O)[C@H]1O | -16 | -20
CN1CCN(C(=O)CC2c3cccnc3C(=O)N2c2c(Cl)cccc2Cl)CC1 (stereo unspecified) | 0 | 11
COc1cc(F)ccc1NCC(=O)NC(N)=O | 2 | 1
COCCN(Cc1ccc(C)cc1)Cc1ccc(C(O)(c2ccc(OC)cc2)c2ccc(OC)cc2)o1 | 0 | 6
CCOC(=O)C1(CCOc2ccccc2)CCN(Cc2cn(CC)nc2C)CC1 | 2 | -3
C=c1ccc(C)c2c1=C(O)C(=O)N2 | -4 | -4
CCOc1nc(-c2ccc(Cl)c(Cl)c2)n(-c2cccc(NC(=O)Nc3ccc(F)cc3F)c2)n1 | 12 | 21
O=c1c2cnc3ncnn3c2ccn1Cc1ccco1 | 3 | 8
COc1ccc(-c2c(NC(=O)c3ccco3)oc3c(C)cccc3c2=O)cc1 | 4 | 0
CCN(CC(=O)NC)C(=O)c1cc(Cl)c(Cl)n1C | -1 | -1
CC(=O)c1ccc(N2CCN(S(=O)(=O)c3ccccc3)CC2)c(F)c1 | 15 | 9
O=C(c1ccc(CSc2nc3ccccc3s2)cc1)N1C2CCC1CC(Oc1ccc(F)cc1F)C2 (stereo unspecified) | 19 | 12
CC(C)c1ccc(C(=O)CSc2nnc(N)s2)cc1 | 0 | 10
CC(=O)NC(c1ccccc1)c1nc(-c2csc3ccccc23)cs1 (stereo unspecified) | 1 | 1
Cc1cc(C)c[n+](C2=C(c3c(C)[nH]n(-c4ccccc4)c3=O)C(=O)N(c3cccc(Cl)c3)C2=O)c1 | -7 | -4
O=C(NCCc1ccc(Cl)cc1Cl)c1cc2n(n1)CCN(Cc1ccc(F)cc1)C2=O | 18 | 21
CCc1ccccc1NC(=O)Cn1nnc(C(=O)NCCc2ccccc2)c1N | 13 | 17
CC(C)c1nccc(CN2CCC(CNS(C)(=O)=O)C2)n1 (stereo unspecified) | 7 | 4
O=S(=O)(Nc1ccc2c(c1)CCC2)c1ccc(F)cc1 | 0 | 5
Cc1ccc2oc(-c3cccc(NC(=O)c4ccccc4C)c3C)nc2c1 | 15 | 11
COc1cc(OC)cc(C(=O)N2CCN(C(c3ccccc3)c3ccc(F)cc3)CC2)c1 (stereo unspecified) | -3 | -1
COc1cc(C2=N/C(=C\c3ccc4c(c3)OCO4)C(=O)O2)cc(OC)c1OC | -4 | -7
O=C1CC(c2ccc(-n3cncn3)cc2)c2cnn(Cc3ccncc3)c2N1 (stereo unspecified) | -9 | -17
CCOC(=O)N1CCN(C(=O)c2nn(-c3ccc(F)cc3)c3c2CCCCC3)CC1 | 0 | 11
O=C(O)CN(C(=O)c1ccco1)[C@@H]1C[C@@H]2CO[C@H](c3ccccc3)C[C@@H]2C1 | 13 | 15
Cc1c(C(=O)NCc2ccncc2)cnc2c(-c3ccc(C(C)C)cc3)cnn12 | 17 | 14
COc1cccc(CN2CCC2(C)C(=O)Nc2ccc3c(c2)CCN3C(C)=O)c1F (stereo unspecified) | 3 | -4
O=C1CN(C(=O)N(Cc2ccccc2)c2ccc(Cl)cc2)CCN1 | -1 | -1
COCCNC(=O)C1CCCN(C2CCN(Cc3nccn3C)CC2)C1 (stereo unspecified) | 4 | 1
COc1ccc(/C=C2/SC(=Nc3ccccc3)NC2=O)cc1OC | 3 | -1
CC(C)c1ncc2c(n1)CN(C(C)C(=O)Nc1ncccn1)CC2 (stereo unspecified) | -5&15 | -5&13
O=C(NC1CC1)c1ccc(N2CCC(NCc3ccc(Cl)cc3)C2)nc1 (stereo unspecified) | -9 | -12
CN1C(=O)C(=Cc2cn(-c3ccccc3)nc2-c2cccs2)C(=O)N(C)C1=O | -3 | -1
CCc1ccccc1NS(=O)(=O)c1cc(Cl)cnc1N | -22 | -24
COc1ccc(CCS(=O)(=O)NCCN2CCN(c3ccccc3F)CC2)cc1 | -7 | -10
C#CCn1c(O)c(N=NC(=O)CNC(=O)c2ccc3c(c2)OCO3)c2ccccc21 | -4 | -8
Cc1ncc2c(c1CNC(=O)c1ccc3c(c1)OCO3)CCN(C(=O)c1sccc1Cl)C2 | 15 | 4
CCN(C(=O)c1ccc2c(C)cc(C)c(O)c2n1)C(C)CO (stereo unspecified) | 10 | 11
O=C1C[C@]23C=CCN4CCC5c6cc7c(cc6N1[C@@]5(CC2)C43)OCO7 (stereo partly specified) | -5 | -13
CCOC(=O)c1ccccc1NC(=O)Cn1c(-c2nnc(C)o2)cc2ccccc21 | 12 | 9

Some of these compounds in order of molar mass, smallest number first:
molecule | NPYLR7 ag | NPYLR7 ag max-min
CCN(C(=O)c1ccc2c(C)cc(C)c(O)c2n1)C(C)CO (stereo unspecified) | 10 | 11
CN1C(=O)C(=Cc2cn(-c3ccccc3)nc2-c2cccs2)C(=O)N(C)C1=O | -3 | -1
Cc1ncc2c(c1CNC(=O)c1ccc3c(c1)OCO3)CCN(C(=O)c1sccc1Cl)C2 | 15 | 4

(further entries)
molecule | NPYLR7 ag | NPYLR7 ag max-min
O=C(NCc1cn2c(n1)SCC2)c1ccc(C2CCCO2)s1 (stereo unspecified) | -7 | -9
CC(=O)[C@@H]1C[C@H](CC(=O)Nc2ccc(OCc3ccccc3)cc2)C1(C)C | -9 | -10
COc1cc(OC)cc(C(=O)OCn2c(SC)nnc(C)c2=O)c1 | 1 | -2
COCCn1c(SCC(=O)NCc2ccc(F)cc2)nc2c([nH]c3ccccc32)c1=O | -2 | -1
COCCN1C(=O)c2ccccc2NC1c1csc(-c2ccsc2)n1 (stereo unspecified) | 6 | 5
COc1cccc(NC(=O)CN2CN(c3ccccc3)C3(CCN(C(=O)C4C[C@H]4c4ccccc4)CC3)C2=O)c1 (stereo partly specified) | 9 | 9
